gsp ag: gsp mutant agonism | gsp mutant cells, cAMP HTRF, 30 min; control for the full effect not named in the record | Potency, µM (top dose mostly 76.9 µM), for inactives: at the highest dose activation (cAMP increase), actives largely listed as activators | actives 0.13% (n = 340,000) | AID 624287; active = well fitted activation curve with a large enough effect; inconclusive = small, poorly fitted or top-dose-only effect, or another doubt; inactive = no such curve, though single readings can be large or run the other way; cell line not stated here;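 also: phosphodiesterase inhibitor Ro 20-1724 added with compounds to block cAMP breakdown; potency is read from the fitted curve at half-maximal effect; nearly all actives have a fitted effect of over 60% in size; about a fifth of the inactives were tested at one dose only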
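Cells stably selected in G418 were plated at 2000/well, grown 16-24 hr, then given compounds in DMSO with the PDE inhibitor […] (300 uM solution added) for 30 min at 37C; cAMP was read by HTRF.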
Sfp PPTase inh: blocks B. subtilis Sfp PPTase activity; Biochemical Sfp PPTase activity, qHTS; Potency, µM, for inactives: max response, negative = inhibition, actives largely listed as inhibitors; actives 3.5% (n = 310,000); AID 1490; active = well fitted inhibition curve with a large enough effect; inconclusive = small, poorly fitted or top-dose-only effect, or another doubt; inactive = no such curve, though single readings can be large or run the other way;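 also: the enzyme is Sfp with the accession as filed and its product quenches rhodamine fluorescence; potency is read from the fitted curve at half-maximal effect; 0% = enzyme reaction without inhibitor and -100% = no enzyme wells; top concentration of the series not given in the record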
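Fluorescence-quenching assay with 15 nM Sfp, 5 uM rhodamine-CoA and 12.5 uM BHQ-2-labelled ybbR peptide in pH 7.6 Hepes/MgCl2 buffer. Enzyme was pre-incubated with compound for 15 min at room temperature. Rate was taken from the 30-min fluorescence change (525/598 nm).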
Menin-MLL FL inh: displaces fluorescein MLL peptide from human menin. 290,000 tested, under 10 active. AID 1766. FP activity change, % at 61.4 µM. Fluorescence polarization, fluorescein-MLL peptide displacement from menin; inconclusive = falling polarisation curve, or a change in total fluorescence; inactive = total fluorescence flat and polarisation flat or rising; no compound was filed as active; the % refers to the polarisation; negative = inhibition;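 also: % of control where 0% means no effect; inhibitors lower the polarisation; unlabelled MLL peptide was the positive control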
ClpP mod: qHTS Assay for Activators of ClpP; ATP-dependent Clp protease proteolytic subunit (Bacillus subtilis (strain 168)), P80244; purified B. subtilis ClpP, FRET peptide cleavage, 20 min; Potency, µM (series often up to 57.5 µM), for inactives: at the top dose activity change, negative = active; actives 1.9% (n = 340,000); AID 651965, 2013; active = well fitted falling curve with a large enough effect; inconclusive = small, poorly fitted or top-dose-only effect; inactive = no such curve, though single readings can be large or run the other way; also: potency is read from the fitted curve at half-maximal effect; the source files actives as falling curves though it sought activators and does not explain the sign; nearly all actives have a fitted effect of over 65% in size; many hits overshoot -100%
Target sequence (P80244 whole entry, looked up): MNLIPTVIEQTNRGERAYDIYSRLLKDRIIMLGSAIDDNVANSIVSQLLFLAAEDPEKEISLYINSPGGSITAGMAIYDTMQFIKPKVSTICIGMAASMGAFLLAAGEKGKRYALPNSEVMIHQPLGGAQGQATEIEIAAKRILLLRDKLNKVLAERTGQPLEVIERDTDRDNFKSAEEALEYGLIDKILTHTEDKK
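FRET quenching reversal measured ClpP activation: 10 microg/mL B. subtilis ClpP at pH 8 with the FRET-FV decapeptide, read at 430 nm after 320 nm excitation. The 20-min minus 0-min signal was scaled between DMSO/no-enzyme wells and ADEP (5.8 microM final).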
TRPV1 potentiator: human TRPV1 potentiation. Q8NER1. TRPV1-expressing cells, Fluo-8 calcium influx, capsaicin EC20 potentiation; host cell line not named in the record; control for the full effect not named in the record. potentiation, % at 8.33 µM. actives 0.02% (n = 320,000). AID 540277; active means potentiation above 80%; inconclusive means 30% to 80%; inactive means below 30%; also: 0% is about no effect
Target sequence (Q8NER1 whole entry, looked up): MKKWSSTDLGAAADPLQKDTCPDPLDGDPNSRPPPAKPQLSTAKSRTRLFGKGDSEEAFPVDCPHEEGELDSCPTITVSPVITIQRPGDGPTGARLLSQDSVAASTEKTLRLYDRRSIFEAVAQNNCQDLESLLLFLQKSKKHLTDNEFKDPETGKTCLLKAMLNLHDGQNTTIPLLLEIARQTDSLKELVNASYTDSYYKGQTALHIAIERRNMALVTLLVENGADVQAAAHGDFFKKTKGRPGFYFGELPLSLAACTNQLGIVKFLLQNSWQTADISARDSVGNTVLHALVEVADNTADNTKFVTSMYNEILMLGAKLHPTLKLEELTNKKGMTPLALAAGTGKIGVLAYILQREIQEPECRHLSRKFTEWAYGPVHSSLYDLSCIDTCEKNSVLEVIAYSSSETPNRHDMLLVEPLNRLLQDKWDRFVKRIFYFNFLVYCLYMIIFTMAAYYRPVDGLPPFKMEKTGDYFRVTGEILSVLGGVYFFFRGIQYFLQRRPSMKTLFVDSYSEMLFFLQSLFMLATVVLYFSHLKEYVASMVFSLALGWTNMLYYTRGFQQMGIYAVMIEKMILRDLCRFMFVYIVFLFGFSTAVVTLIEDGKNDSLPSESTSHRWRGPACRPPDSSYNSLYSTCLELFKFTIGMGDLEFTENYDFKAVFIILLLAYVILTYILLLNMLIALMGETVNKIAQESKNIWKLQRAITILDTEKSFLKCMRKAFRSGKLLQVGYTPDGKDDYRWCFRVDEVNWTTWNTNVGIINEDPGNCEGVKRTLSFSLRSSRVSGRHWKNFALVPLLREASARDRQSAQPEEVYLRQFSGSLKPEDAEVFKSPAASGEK
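Cells expressing TRPV1 were dye-loaded with Fluo-8 and read kinetically: 10 s baseline, 3 min after compound (agonist portion), then 2 min after EC20 capsaicin (allosteric enhancer portion). Calcium-bound dye fluorescence at 480/520 nm.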
gsp antagonist: antagonists of gsp mutant (McCune-Albright syndrome); gsp-mutant cells, cAMP HTRF, 30 min; control for the full effect not named in the record; AID 624288; Potency, µM (top dose mostly 76.9 µM), inactives show at the highest dose activity change, negative = inhibition, actives largely listed as inhibitors; actives 0.4% (n = 340,000); active = falling curve of any shape with a large fitted effect; inconclusive = falling curve, mostly with a smaller effect; inactive = flat or rising curve; cell line not stated here;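 also: intracellular cAMP measured with PDE inhibitor Ro 20-1724 present during compound exposure; potency is read from the fitted curve at half-maximal effect; % is scaled to controls: 0 for no effect and ±100 for the full control effect; nearly all actives have a fitted effect of over 65% in size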
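HTRF cAMP measurement after 30 min RT detection following 30 min, 37C compound treatment alongside […] (added as 300 uM solution) in G418-selected cells seeded at 2000/well and grown 16–24 h.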
CtBP-E1A inh: CtBP/E1A binding inhibition; AlphaScreen GST-E1A/His-CtBP binding, 1536-well; active compounds read low; control for the full effect not named in the record; activity change, % (concentration not given with the values); actives 0.49% (n = 340,000); AID 651724; in the data active means activity change below about -65%; inconclusive means about -30% to -65%; inactive means above about -30%; also: % is scaled to controls: 0 for no effect and ±100 for the full control effect
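Homogeneous bead-based format: GST-tagged E1A captured on glutathione donor beads, His-tagged CtBP on nickel acceptor beads; compounds precede bead addition by 2 h at 37 °C.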
An asterisk follows results filed as active; ? = inconclusive; / = no result given; [ ] = remark or other dose.

Molecule | gsp ag | Sfp PPTase inh | Menin-MLL FL inh | ClpP mod | TRPV1 potentiator | gsp antagonist | CtBP-E1A inh
CN(C)S(=O)(=O)c1ccc(N2CCCC2)c(C(=O)NCC2CCCO2)c1 (centres undefined) | ? | / | / | 0.9% | -9 | 11% | 6
NS(=O)(=O)c1cc(C(=O)Nc2ccc3c(c2)CCC3)ccc1Cl | -18%[15.4 µM] | 8% | 1.0 | / | -6 | -18% | -1
O=C(N/N=C/c1ccccc1O)c1cccc2ccccc12 | ? | 27% | 0.5 | 19% | -6 | 3% | /
OCCNc1nc2ccccc2n1-c1ncnc2sc3c(c12)CCC3 | -20% | ? | -1.4 | -2.7% | -5 | -9% | -9
O=Cc1cn[nH]c1-c1ccccc1 | -76%[inhibitor] | 18% | 1.7 | 1.2% | -12 | 9% | /
CCN(CC)c1ccc(C2C(C(=O)Nc3ccccn3)=C(C)NC3=C2C(=O)CC(C)(C)C3)cc1 (centres undefined) | -26% | 12% | -0.5 | -0.9% | -6 | -17% | 22
CC12CCC(=O)N1C(C(=O)N1CCN(c3ccccc3)CC1)CS2 (centres undefined) | -5% | / | / | -0.9% | -11 | 4% | 8
COc1ccc(NC(=S)NCc2ccc(F)cc2)cc1 | -25% | 11% | 0.3 | 0.3% | 12 | 0% | /
Cc1ccc(-n2c(SCC(=O)Nc3nccs3)nc3c(c2=O)SCC3)cc1 | ? | 4% | -0.2 | -1.7% | -16 | -3% | 3
CCOC(=O)c1c(O)c2c([nH]c1=O)CCCC2 | -39% | 7% | 5.3 | -1.4% | -3 | 8% | 6
O=C(CN1CCSC1=O)Nc1ccc(N2CCOCC2)cc1 | -11%[15.4 µM] | / | / | / | -9 | -4% | 11
COc1cc(C(=O)O)ccc1OCc1c(C)noc1C | 6% | 11% | 1.5 | -1.2% | 5 | -11% | 7
COc1ccc(C(=O)c2c(-c3ccc(OC)cc3)oc3ccc(-c4ccc(OC)nc4)cc23)cc1 | / | / | / | 16µM* | / | 6% | ?
O=C1CCCC(=O)C1=Cc1c[nH]c2ccccc12 | 6% | -2% | 0.3 | -2.4% | -4 | 7% | 0
COc1ccc(CNc2nc3ccccc3n2C(C)C)c(O)c1 | 3%[15.4 µM] | 19% | 0.5 | -27% | 6 | -12% | 1
CC1(C)CN=C(N(Cc2ccccc2)C(=O)Nc2ccccc2)S1 | 0% | 4% | 2.1 | -3.0% | 2 | 10% | -9
C[C@H]1CN([C@@H](C)CO)C(=O)c2cccc(NC(=O)c3nc4ccccc4s3)c2O[C@H]1CN(C)C(=O)Nc1ccc(F)cc1 | / | / | / | 0.4% | / | ? | -4
Cc1ccc(Cn2nc(C)c(C(=O)NCC(c3ccc(F)cc3)N3CCOCC3)c2Cl)cc1 (centres undefined) | -4% | / | / | 0.7% | 30 | ? | /
O=C(Nc1ccc(F)c(Cl)c1)C1CC(=O)N(Cc2ccco2)C1 (centres undefined) | -21% | / | / | 0.9% | 10 | 3% | 0
CCOc1ccccc1NC1=NC2CS(=O)(=O)CC2S1 (centres undefined) | ? | 0% | -1.0 | -0.8% | 24 | 10% | /
O=c1cc(CO)occ1OCc1cccc(C(F)(F)F)c1 | ? | 4% | 2.7 | 2.7% | -3 | 1% | 10
COc1ccc(CNC(=O)CN(C)Cc2ccc(C(C)(C)C)cc2)cc1 | -11%[15.4 µM] | ? | -1.3 | 0.0% | -6 | -2% | -4
COc1ccc(-c2c(-c3ccsc3)oc3ccc(N4CCOCC4)cc23)cn1 | 7% | / | / | 4.1% | / | -19% | -16
C=CCOc1c(CNc2ccc(C(=O)O)cc2)cccc1OC | 0% | 12% | 7.3 | -11% | 2 | -25% | 10
CCc1ccc(N(C(=O)c2csnn2)C(C(=O)NC(C)(C)C)c2ccccn2)cc1 (centres undefined) | 4% | 25% | -6.6 | / | -12 | 9% | 4
CCCCCC(=O)N1C[C@H](O)[C@@H](n2cc(COC(=O)c3ccccc3)nn2)C[C@@H]1c1ccc(OC)cc1 | ? | / | / | 0.9% | / | / | 7
CC(=O)Nc1ccc(S(=O)(=O)N(C)CC(=O)OC(C)C(=O)NC2(C#N)CCCCC2)cc1 (centres undefined) | -54%[inhibitor] | / | / | 2.0% | / | / | 4
Cc1cccc(Nc2ccccc2C(=O)OCC(=O)N2CCOCC2)c1C | -7% | -7% | 4.7 | -2.4% | -10 | -24% | 5
CCOC(=O)c1sc(=NC(=O)c2ccc(OC)c(OC)c2)n(C)c1C | 7% | -12% | 1.7 | -1.6% | 0 | 5% | 8
COC(=O)c1ccc2c(c1)nc(C)n2CCO | 15% | -2% | 2.4 | -6.6% | -1 | 6% | -1
OC1(c2cccc(C(F)(F)F)c2)CCN(c2ccc(-c3ccccc3)nn2)CC1 | -24% | 6% | -0.4 | -6.2% | -1 | -1% | 5
COCCSc1nnc(NS(=O)(=O)c2ccc(C)cc2)s1 | -10%[15.4 µM] | 12% | 0.9 | / | 5 | 3% | -10
COc1ccc(NC(C)=O)cc1NC(=O)CN1CCN(CC(=O)Nc2ccc(Cl)cc2)CC1 | 9% | 9% | 0.1 | 1.3% | 1 | -3% | 7
NS(=O)(=O)c1ccc(CNC(=O)c2ccc(S(=O)(=O)NCc3ccco3)cc2)cc1 | 12% | / | / | -1.8% | 7 | 7% | /
CCOc1ccc(N2C(=O)CC(N(Cc3ccco3)C(=O)CC)C2=O)cc1 (centres undefined) | ? | 23% | 0.2 | 0.2% | 2 | 6% | 7
COc1ccc(NS(=O)(=O)c2cccc(C(=O)O)c2)cc1 | -5% | 9% | 2.1 | 0.8% | 2 | 1% | 8
CCOc1ccc(NC(=O)CSc2n[nH]c(=O)n2-c2ccccc2)cc1 | -5% | 6% | -2.9 | -0.4% | -24 | 7% | 5
Cc1ccc(C(=O)N/C(=C\c2cccc([N+](=O)[O-])c2)C(=O)OCN2C(=O)c3ccccc3C2=O)cc1 | -35%[inhibitor] | -18% | / | 2.0% | -19 | 13% | -4
COC(=O)C(C)N=Cc1ccccc1 (centres undefined) | -8%[15.4 µM] | 8% | 1.4 | 4.2% | -2 | 15% | -2
COc1ccc(C)cc1NC(=O)CN1CCN(c2ccccn2)CC1 | -10% | 11% | 4.1 | / | -25 | -3% | -1
Cc1ccccc1OCCC(=O)N1CCN(S(=O)(=O)c2ccccc2F)CC1 | 8% | -1% | -0.9 | 0.6% | -18 | -13% | 2
CC1=NNC(=O)C1CC(=O)N/N=C/C=C/c1ccccc1 (centres undefined) | -45%[inhibitor] | 12% | 1.2 | / | ? | -4% | 5
Cc1cc(C)nc(/N=C(\N)Nc2ccc(S(=O)(=O)Nc3nc(C)cc(C)n3)cc2)n1 | / | 8% | 0.1 | / | -2 | / | /
COc1ccccc1OCc1nc(Cc2ccc(Cl)cc2)no1 | -32%[inhibitor] | 20% | -1.5 | 0.3% | 0 | 9% | 15
NC(=O)C1CCN(CC(O)CSc2ccccc2)CC1 (centres undefined) | -3% | -1% | -2.5 | -3.0% | 5 | -3% | -1
Cc1occc1-c1nnc(SCC(=O)N2CCOCC2)n1Cc1ccco1 | 15% | 89µM* | -9.0 | 0.0% | 3 | 15% | -3
COc1cc(C)ccc1OCc1cc(C(=O)NC(C)Cn2cncn2)no1 (centres undefined) | 3%[15.4 µM] | 8% | -1.3 | 1.3% | -2 | 3% | 6
Cc1ccc(S(=O)(=O)Cc2ccc(C(=O)N3CCN(Cc4ccccc4)CC3)o2)cc1 | / | -15% | 1.7 | / | 11 | / | /
O=C(Cn1cc(C(F)(F)F)ccc1=O)N1CCCc2ccccc21 | 0%[15.4 µM] | / | / | 1.4% | / | -1% | 4
COc1cccc(NC(=O)c2ccc(NCCCN3CCC(C)CC3)c([N+](=O)[O-])c2)c1 | -16% | 8% | -1.7 | / | -13 | -1% | -15
CC(=O)c1c(N)n(C)c(=O)n(C)c1=O | 13% | 13% | 2.8 | -1.6% | 1 | 1% | 7
NC(=O)/C=C/C(=O)Nc1ccc(Cl)cc1 | 3%[15.4 µM] | -10% | -0.6 | / | 3 | -3% | 3
COc1cc(C(=O)Nc2ccccc2-c2nnn(CC(N)=O)n2)cc(OC)c1OC | -19% | 9% | -1.2 | 1.7% | 1 | -1% | -5
COc1ccc2oc(C(=O)OC(C)C(=O)Nc3ccc(N4CCOCC4)cc3)c(C)c2c1 (centres undefined) | 5% | / | / | -18% | -6 | -13% | 7
COc1ccc(-c2cc(C(=O)O)c3sc(N4CCCCC4)nc3n2)cc1OC | 8% | -7% | 4.8 | 10µM* | 5 | -10% | 5
CN(C)S(=O)(=O)c1ccc(C(=O)NCCc2ccco2)cc1 | 13%[15.4 µM] | 3% | -5.5 | / | -37 | 3% | -8
N#CC1=C(N)N2C(=C(C#N)C1c1cccc(Br)c1)Nc1ccccc12 (centres undefined) | 0%[15.4 µM] | 19% | 3.3 | / | 3 | 3% | 4
O=C(NCCCc1ccccc1)c1cc([N+](=O)[O-])ccc1Cl | 13% | -9% | 2.9 | 0.8% | -6 | -4% | -2
COC(=O)c1ccc(OCC(O)CN2CCN(C(=O)c3ccco3)CC2)c(OC)c1 (centres undefined) | 9%[15.4 µM] | 15% | 0.6 | -15% | 5 | 4% | 1
COc1ccc(/C=N/Nc2nc3ccccc3[nH]2)cc1OC | -17% | 22µM* | 2.5 | -6.7% | -1 | -5% | 1

In a second layout: 3 of the compounds above
Compound: CC(=O)c1c(N)n(C)c(=O)n(C)c1=O
  gsp ag: 13%; Sfp PPTase inh: 13%; Menin-MLL FL inh: 2.8; ClpP mod: -1.6%; TRPV1 potentiator: 1; gsp antagonist: 1%; CtBP-E1A inh: 7

Compound: NC(=O)/C=C/C(=O)Nc1ccc(Cl)cc1
  gsp ag: 3%[15.4 µM]; Sfp PPTase inh: -10%; Menin-MLL FL inh: -0.6; ClpP mod: /; TRPV1 potentiator: 3; gsp antagonist: -3%; CtBP-E1A inh: 3

Compound: COc1cc(C(=O)Nc2ccccc2-c2nnn(CC(N)=O)n2)cc(OC)c1OC
  gsp ag: -19%; Sfp PPTase inh: 9%; Menin-MLL FL inh: -1.2; ClpP mod: 1.7%; TRPV1 potentiator: 1; gsp antagonist: -1%; CtBP-E1A inh: -5

Screening data: PubChem, National Center for Advancing Translational Sciences (NCATS)

No enrichment for hits; any-hit rate near 5.3%.
